Screening data (PubChem BioAssay)
Prx2 Sm inh – Schistosoma Mansoni Peroxiredoxins (Prx2); Schistosoma mansoni peroxiredoxin 2 (Prx2); S. mansoni Prx2 activity coupled to TGR/GSH (TGR is thioredoxin glutathione reductase), NADPH fluorescence loss, qHTS; some inactives read as strong as hits; Potency, µM; 65,000 tested, 0.07% active; active means full or partial inhibition curve with a strong effect at the top dose; inconclusive means weaker partial or single-point curve; inactive means no accepted curve; further: series up to 57 µM; many of its hits are not listed in these tables
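Purified S. mansoni TGR and Prx2 in pH 7.4 phosphate buffer with EDTA and Tween-20 were preincubated with compounds for 15 min. Further NADPH/GSH was added, then a 2.5 mM H2O2 aliquot initiated turnover, followed kinetically by NADPH fluorescence.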
LT uptake inh – qHTS Assay for Anthrax Lethal Toxin Internalization; 70,000 tested, 0.67% active; AID 912, 2007; Cells, anthrax lethal toxin internalization, FRET ratio (460/530); Potency, µM (doses to about 40 µM), without a hit: at the top dose activity change, negative = inhibition, usual class: inhibitors; active = well fitted falling ratio curve with the 530 nm signal flat; inconclusive = other ratio curves, or a change in one channel alone; inactive = flat curves in the ratio and both channels; the % refers to the ratio; further: on the % scale 0 is the no-effect control and ±100 the full control effect; nearly all actives have a fitted effect of over 50% in size; tested in ME-180 cells; beta-lactamase reporter
Active calls of the source: *; ? = inconclusive; nt = not tested or not shown; [ ] = remark or other dose. Potency means the concentration at half of the fitted maximal effect. Only part of the results is shown; rates above refer to the full screens.

SMILES | Prx2 Sm inh | LT uptake inh
COCCCN(C(C)=O)c1nc(-c2ccccc2)cs1 | >57 | -20%
CN1CCN(c2ccccc2NC(=O)c2ccc(Br)o2)CC1 | >57 | 15%
Cc1cc(=O)oc2cc(OCC#N)ccc12 | >57 | -5%
Cc1ccccc1Cn1c(-c2cncs2)nc2ccccc21 | >57 | ?
Cc1nc2ccccc2n1CCc1nc2c3ccccc3nc(SCC(=O)NCc3ccco3)n2n1 | >57 | 8%
Cc1ccc(OCCCCn2ccnc2)c(Cl)c1 | >57 | -5%
Cc1nc2cnc(OCc3ccccc3)nc2n(CCC#N)c1=O | >57 | 4%
O=C(CN(C(=O)CCC(=O)Nc1nccs1)c1ccc(F)cc1)NCc1ccco1 | >57 | 14%
COc1ccc2c(c1OC)C(=O)N(c1cccc(C(F)(F)F)c1)C2 | >57 | -15%
COc1cccc(N2CCN(Cc3cccc(Cl)c3)CC2)c1 | nt | 0%
Cc1cc(C(=O)Nc2ccc(S(=O)(=O)Nc3onc(C)c3C)cc2)cs1 | >57 | nt
CCOC(=O)C1CCCN(C(=O)C2CCN(S(=O)(=O)c3cccs3)CC2)C1 (stereo not given) | >57 | -3%
CCn1c(SCC(=O)NCc2cccs2)nnc1-c1ccco1 | >57 | -1%
O=C(OCC1COc2ccccc2O1)c1c(F)cccc1F (stereo not given) | >57 | ?
COc1cccc(NC(=O)NCc2cccn2C)c1 | >57 | -2%
CCCCN(C(=O)c1c(C)[nH]c(C(=O)OCC)c1C)c1ccccc1 | >57 | -7%
O=C1NCCN1CCNS(=O)(=O)c1ccc2ccccc2c1 | >57 | -7%
CCOc1ccccc1-n1nnnc1SCC(=O)Nc1cc2oc3ccccc3c2cc1OC | >57 | ?
COCCn1c(=O)cnc2cnc(Oc3ccc(OC)cc3)nc21 | >57 | -7%
Cc1ccsc1C(C(=O)NC1CCCCC1)N(C(=O)c1csnn1)C1CC1 (stereo not given) | >57 | 2%
CCN(CC)S(=O)(=O)c1ccc(-c2nnc3sc4cccc(C)c4n23)cc1 | >57 | ?
Cc1nc(N=Nc2ccc(C(=O)O)cc2)c(COP(=O)(O)O)c(C=O)c1O | >57 | ?
Cc1ccc(-c2nnc3n2N=C(c2ccccc2)CS3)cc1 | >57 | -18%
CN1CCN(C(=O)c2ccc3ccccc3c2)CC1 | >57 | 6%
Cn1c(=O)c2c(nc(NCc3ccccc3)n2CCCc2ccccc2)n(C)c1=O | >57 | -1%
Cc1cc(-c2nnc3n2CCCCC3)c(C)n1-c1ccccc1 | >57 | -7%
COc1ccc(CCn2c(N)c(S(=O)(=O)c3cccs3)c3nc4ccccc4nc32)cc1OC | >57 | 9%
CCOCCCNC(=O)C1CCN(C(=O)Nc2ccc(C)cc2)CC1 | >57 | -4%
COCCNc1nc(-c2ccccc2C)nc2ccccc12 | >57 | 4%
c1nc(N2CCN(Cc3ccc4c(c3)OCO4)CC2)c2[nH]cnc2n1 | >57 | 10%
C=CCOC(=O)COc1cc(C)cc2oc(=O)c3c(c12)CCC3 | nt | 12%
O=C(CN1C(=O)c2ccccc2C1=O)Nc1ccc(N2CCOCC2)cc1 | >57 | -9%
O=C(c1cnccn1)N1CCC[C@@]2(CCN(Cc3cc(C(F)(F)F)cc(C(F)(F)F)c3)C2)C1 | >57 | -4%
CC1CCc2nn(CC(=O)NCCCN3CCOCC3)cc2C1 (stereo not given) | >57 | 0%
Cc1sc2ncnc(-n3cnc4ccccc43)c2c1C | >57 | -15%
CCCOC(=O)c1ccc(Oc2c(-c3ccc(OC)cc3O)n[nH]c2C)cc1 | >57 | -20%
Cc1nc2cnc(N3CCN(C)CC3)nc2n(C2CC2)c1=O | >57 | ?
O=C1CC(Cc2ccccc2)C(=O)N1c1ccc(Cl)cn1 (stereo not given) | >57 | 22%
COc1ccccc1N1CCN(C(=O)C(C)N(c2ccc(C)c(C)c2)S(C)(=O)=O)CC1 (stereo not given) | >57 | -13%
CCOC(=O)c1ccc2[nH]c3c(c2c1)CN(C)CC3 | >57 | 1%
Cc1cccc(CCNC(=O)C2CCN(S(=O)(=O)c3c(C)nn(C)c3C)CC2)c1 | >57 | -2%
CCc1nnc(NC(=O)CSc2nnc(Cc3ccccc3)n2-c2ccccc2)s1 | >57 | 14%
Cn1cc(CNC(=O)C2CCCCC2)cn1 | >57 | -8%
COC(=O)[C@@]1(Cc2ccccc2)[C@H]2c3cc(C(=O)N(C)C)n(Cc4ccsc4Br)c3C[C@H]2CN1C(=O)c1ccccc1 | >57 | ?
CCOc1cc(C(=O)NCC(C)CN(C)C)cc(OCC)c1OCC (stereo not given) | >57 | nt
CCOC(=O)CC1C(=O)NC2CCCCC2N1C(=O)Nc1ccc(Cl)cc1 (stereo not given) | >57 | 16%
CC(=O)Oc1ccc(/C=C\C(=O)C[C@@H]2O[C@@H](Oc3cc(OC(C)=O)c4c(c3)O[C@@H](c3ccc(OC(C)=O)cc3)CC4=O)[C@H](OC(C)=O)[C@H](OC(C)=O)[C@@H]2OC(C)=O)cc1 | >57 | ?
C[C@@H](C(=O)O)/C(=C/c1ccc2c(c1)OCO2)C(=O)O | >57 | ?
Cc1nc2c3ccccc3n(CC(=O)c3ccc(F)cc3)c(=O)n2n1 | >57 | ?
O=C(O)C1OC(C(=O)O)C2C1C(F)(F)C2(F)F (stereo not given) | >57 | 7%
(list continues)
SMILES | Prx2 Sm inh | LT uptake inh
CCCc1nnc(SCC(=O)O)n1/N=C/c1ccc2c(c1)OCO2 | >57 | 0%
CCOC(=O)c1ccc(NC(=O)Nc2ccn(C)n2)cc1 | >57 | 0%
CC#CCN(CC#CC)S(=O)(=O)c1ccc(S(=O)(=O)N2CCOCC2)cc1 | >57 | -5%
Cc1cc(SCC(=O)Nc2ccccc2)nc(C)n1 | >57 | -9%
O=C1CN(C(=O)COC(=O)C2=COCCO2)c2ccccc2N1 | >57 | -13%
O=C(CSc1ccc2nnc(-c3cccs3)n2n1)N1CCOCC1 | >57 | 6%
Cc1ccc2nc(Nc3nc(=O)c4ccccc4n3C)nc(C)c2c1 | >57 | -5%
COC(=O)[C@@]1(Cc2ccc(F)cc2)[C@H]2c3cc(C(=O)N(C)C)n(CCc4ccccn4)c3C[C@H]2CN1C(=O)c1ccccc1 | >57 | ?
COc1ccccc1N1CCN(C(=O)C2CCN(S(=O)(=O)N3CCOCC3)CC2)CC1 | >57 | 2%
CCOC(=O)c1sc2nc(N3CCOCC3)c3c(c2c1N)CCC3 | >57 | nt
Cn1c(SCC(=O)Nc2ccc3cn[nH]c3c2)nnc1-c1cnccn1 | >57 | nt
CC1CC(OC(=O)c2ccccc2O)CC(C)(C)C1 (stereo not given) | nt | ?
Cc1cccc(-c2noc(CCCC(=O)Nc3cccnc3)n2)c1 | >57 | -5%
C/C(N)=C(/C#N)C(=O)CSc1ncnc2ccccc12 | >57 | 1%
CC1CCCCC1NC(=O)c1ccc(N2CCCC2=O)cc1 (stereo not given) | >57 | 14%
O=C(NCCc1nc2ccccc2[nH]1)Nc1ccccc1 | >57 | -1%
CCOC(=O)CSc1nc2ccccc2c(=O)n1CC | >57 | ?
CN(C)S(=O)(=O)N1CCC(CCCC2CCN(S(=O)(=O)N(C)C)CC2)CC1 | >57 | 4%
CCOC(=O)C(C)Sc1nc2c(c(=O)[nH]c(=O)n2C)n1C/C=C(/C)Cl (stereo not given) | >57 | 9%
CC1=C(C(=O)OCCOc2ccccc2)C(c2ccc(C)o2)C2=C(CC(C)(C)CC2=O)N1 (stereo not given) | nt | 18%
CCOC(=O)N1CCN(C(=O)CSc2nnc(-c3c[nH]c4ccccc34)n2CCOC)CC1 | >57 | 8%
COc1cc(OC)cc(-c2nnc(SCC(=O)N(Cc3ccccc3)C(C)(C)C)o2)c1 | >57 | -3%
NC(=O)c1ccsc1NC(=O)c1nc(-c2ccccc2)n(-c2ccccc2)n1 | ? | 10µM*
O=C(CSc1nnc(CNC(=O)c2c(F)cccc2Cl)o1)c1ccccc1 | >57 | 0%
O=C(NCCCN1CCOCC1)c1ccc(CS(=O)(=O)Cc2ccccc2Cl)o1 | >57 | 1%
CCOC(=O)CSc1nc2ccccc2n1CC(=O)N1CCN(c2ccccc2)CC1 | >57 | ?
O=C(CCn1c(=O)oc2ccccc21)NCCN1CCc2ccccc2C1 | >57 | 0%
O=C(NCC(c1cccnc1)N1CCOCC1)c1cccc(Cl)c1 (stereo not given) | >57 | 3%
O=C(O)[C@@H]1CCN(Cc2oc(CO)cc(=O)c2O)C1 | >57 | -2%[8 µM]
C[C@@H](c1ccccc1)N1C(=O)[C@H]2[C@H]3[C@H](O)[C@H](O)C/C(=N/NC(=O)OCc4ccccc4)[C@@H]3CC[C@@H]2C1=O | nt | 2%[8 µM]
Cc1ccc(C(=O)CSc2n[nH]c(C)n2)cc1 | nt | -3%
CN(C)CCNC(=O)c1cc2c(=O)n(C)c3ccccc3c2n1C | >57 | 13µM*
O=C(c1ccco1)N1CCN(c2nc(C3CC3)nc3sc4c(c23)CCCC4)CC1 | >57 | ?
O=C(Cn1cnc2c(nnn2Cc2ccccc2)c1=O)c1ccccc1 | >57 | ?
CCOC(=O)Cc1nnc2c(Nc3ccc(Cl)cc3)nc3nonc3n12 | >57 | ?
O=C(NCc1ccncc1)c1c(F)c(F)c(F)c(F)c1F | >57 | -9%
O=C(NCc1ccco1)C1CCN(S(=O)(=O)c2ccc(-n3cnnn3)cc2)CC1 | >57 | -6%
Cc1cc(CC(=O)O)n(C)c1C(=O)c1ccc(Cl)cc1 | >57 | -13%
Cc1nc2ccc(NC(=O)NCc3ccco3)cc2s1 | >57 | nt
CC(C)NC(=O)C1CCCN(c2nnc(-n3cccc3)s2)C1 (stereo not given) | >57 | 1%
O=C(c1ccco1)N1CCN(S(=O)(=O)c2ccc(Oc3ccccc3)cc2)CC1 | >57 | ?
O=C(NCCN1CCN(C(=O)Nc2ccccc2)CC1)Nc1ccccc1 | >57 | -15%
C[C@@H]1C=CCC(=O)OC[C@H](C)C(=O)OC[C@H]2O[C@H]1C=C[C@H]2O | nt | 3%[8 µM]
Nc1ccccc1NC(=O)c1ccccc1 | >57 | 4%
NC(=O)C1CCCN(C(=O)c2ccc(Cl)cc2)C1 (stereo not given) | >57 | 4%
O=C(O)CCc1ccc(-c2ccccc2)o1 | >57 | -17%
Cc1cc(NC(=O)COC(=O)C(Cc2ccccc2)NC(=O)c2ccco2)no1 (stereo not given) | >57 | ?
CCNC(=O)CC1C(=O)N(c2ccc(F)cc2)C(=O)N1Cc1ccccn1 (stereo not given) | >57 | -9%
COc1ccc2c(c1)c1c3n2CCN(C)C3=NCC1 | >57 | 23%
Cc1nn(C)c(C)c1NS(=O)(=O)c1ccccc1 | nt | 11%
(listing goes on)
SMILES | Prx2 Sm inh | LT uptake inh
COc1ccc(N2CCN(CCNC(=O)c3c(C)cc(=O)oc3C)CC2)cc1 | >57 | ?
Cc1cc(C)c2c(=O)[nH]n(C3CC(C)N(C)CC3C)c2n1 (stereo not given) | >57 | ?
CCN(CC)C(=O)CSc1nnc([C@@H](NC(=O)OC(C)(C)C)C(C)C)o1 | >57 | -4%
Cn1cnnc1SCC(=O)Nc1ccccc1 | >57 | 13%
COc1ccc(OC)c(NC(=O)C2C3CC4OC(=O)C2C4C3)c1 (stereo not given) | >57 | -3%
CC(=O)Nc1c(C(=O)N2CCOCC2)sc2nc3c(cc12)COC(C)(C)C3 | >57 | ?
CCOC(=O)CCN1C(=O)[C@H]2[C@@H]3[C@H](O)C=CC(=O)[C@H]3CC[C@H]2C1=O | nt | 6%[1.6 µM]
O=C(NCc1cccs1)C1CCCN(S(=O)(=O)c2ccc3c(c2)OCO3)C1 (stereo not given) | >57 | -6%
Cc1csc(NC(=O)CSc2nnc(C)s2)n1 | >57 | -3%
CS(=O)(=O)N1CCC2(CC1)CN(C(c1ccccc1)c1ccccc1)C2 | >57 | 5%
COC(=O)CSc1nnc(CNc2ccc(F)cc2)o1 | >57 | 15%
COc1ccc(-n2c(SCc3nnc(-c4ccccc4)o3)nnc2-c2ccccc2)cc1 | >57 | 14%
